PINK1 modulator: PINK1 expression modulation. Potency, µM (top dose mostly 76.6 µM), without a hit: at the top dose activation (PINK1 increase), actives largely listed as activators. AID 624263. 410,000 tested, 0.2% active. PINK1 immunofluorescence, high-content cytometry, 24 h; active = well fitted activation curve with a large enough effect; inconclusive = small, poorly fitted or top-dose-only effect; inactive = flat fitted curve, though single readings scatter; cell line not stated here;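 also: potency is read from the fitted curve at half-maximal effect; % of control where 0% means no effect; nearly all actives have a fitted effect of over 65% in size; a mitochondrial uncoupler was the plate control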
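PINK1 protein, normally rapidly degraded, was detected by immunofluorescence after 24 hour compound treatment of a stable cell line. Titration data (5 concentrations) came from laser-scanning cytometry, with CCCP-treated wells as controls.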
TRPV1 PAM: enhances activation of the human vanilloid receptor TRPV1; potentiation, % at 8.33 µM; Q8NER1; TRPV1-expressing cells, Fluo-8 calcium influx, capsaicin EC20 potentiation; host cell line not named in the record; control for the full effect not named in the record; AID 540277; 320,000 tested, 0.02% active; active means potentiation above 80%; inconclusive means 30% to 80%; inactive means below 30%; also: 0% is about no effect
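TRPV1-expressing cells were cultured overnight at 35.5C and loaded with Fluo-8 calcium dye for 40 to 90 min at room temperature. After a 10 s baseline, compound was added and calcium influx was read kinetically for 3 min (ex 480/em 520 nm).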
TRPML1 inh: blocks the human TRPML1 channel; Q9GZU1; TRPML1-inducible cells, Ca2+ dye fluorescence, FDSS; hits give low values; inhibition of EC80 agonist-evoked calcium signal; activity change, negative = inhibition, % (test concentration not listed); 390,000 tested, 0.02% active; AID 624415; in the data active means activity change below about -50%; inconclusive means about -30% to -50%; inactive means above about -30%;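 also: stimulus is agonist 54-4 at its EC80 concentration; % is scaled to controls: 0 for no effect and ±100 for the full control effect; compound concentration not given in the record; the text of the record puts the active cut at -80%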
Target sequence (Q9GZU1 whole entry, looked up): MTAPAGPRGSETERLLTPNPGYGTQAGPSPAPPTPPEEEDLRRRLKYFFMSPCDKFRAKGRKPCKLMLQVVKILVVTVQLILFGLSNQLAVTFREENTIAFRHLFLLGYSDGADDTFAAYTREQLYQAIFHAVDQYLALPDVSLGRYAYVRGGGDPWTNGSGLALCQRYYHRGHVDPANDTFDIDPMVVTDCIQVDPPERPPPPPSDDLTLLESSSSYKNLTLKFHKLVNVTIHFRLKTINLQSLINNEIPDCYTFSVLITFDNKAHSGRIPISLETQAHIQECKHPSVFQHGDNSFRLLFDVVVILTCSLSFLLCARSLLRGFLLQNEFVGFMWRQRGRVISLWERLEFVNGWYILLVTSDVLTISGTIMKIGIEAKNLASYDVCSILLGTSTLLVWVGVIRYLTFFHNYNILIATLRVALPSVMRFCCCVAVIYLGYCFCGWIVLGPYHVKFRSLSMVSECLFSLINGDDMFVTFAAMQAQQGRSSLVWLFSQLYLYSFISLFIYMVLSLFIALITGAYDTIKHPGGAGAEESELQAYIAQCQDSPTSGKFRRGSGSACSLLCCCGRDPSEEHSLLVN
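Tet-induced TRPML1-DL cells loaded with Ca8 no-wash calcium dye were read kinetically on FDSS. Compound addition was followed by EC80 agonist 54-4 (4 uM final); inhibition was read over 110 s.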
Sfp PPTase inh: inhibitors of Bacillus subtilis Sfp phosphopantetheinyl transferase. 310,000 tested, 3.5% active. Potency, µM, inactives show max response, negative = inhibition, hits mostly inhibitors. AID 1490. Biochemical Sfp PPTase activity, qHTS. Q9F4F7; active = well fitted inhibition curve with a large enough effect; inconclusive = small, poorly fitted or top-dose-only effect, or another doubt; inactive = no such curve, though single readings can be large or run the other way;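 also: the enzyme is Sfp with the accession as filed and its product quenches rhodamine fluorescence; potency is read from the fitted curve at half-maximal effect; 0% = enzyme reaction without inhibitor and -100% = no enzyme wells; top concentration of the series not given in the record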
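Fluorescence-quenching assay with 15 nM Sfp, 5 uM rhodamine-CoA and 12.5 uM BHQ-2-labelled ybbR peptide in pH 7.6 Hepes/MgCl2 buffer. Enzyme was pre-incubated with compound for 15 min at room temperature. Rate was taken from the 30-min fluorescence change (525/598 nm).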
TRPML1 agonist: human mucolipin-1 channel agonism; activation, % (test concentration not listed); 410,000 tested, 0.12% active; AID 624414; TRPML1-expressing cells, Ca2+ dye fluorescence, FDSS; host cell line not named in the record; reference of the full effect not given here; in the data active = activation above about 50%; inconclusive = about 30% to 50%; inactive = below about 30%; also: 0% is about no effect; the text of the record puts the active cut at 80%
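Calcium fluorescence on an FDSS kinetic reader gave the read-out. Tet-induced TRPML1-DL cells were plated overnight, dye-loaded (Ca8 with quencher, 45-90 min, room temperature, dark), then read 110 s after compound addition, and again 110 s after 4uM final 54-4 (EC80).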
ClpP mod: qHTS Assay for Activators of ClpP; Potency, µM (titrated, usually from 57.5 µM), for the others: top-dose activity change, negative = active; AID 651965, 2013; 340,000 tested, 1.9% active; purified B. subtilis ClpP, FRET peptide cleavage, 20 min; ATP-dependent Clp protease proteolytic subunit (Bacillus subtilis (strain 168)), P80244; active = well fitted falling curve with a large enough effect; inconclusive = small, poorly fitted or top-dose-only effect; inactive = no such curve, though single readings can be large or run the other way; also: potency is read from the fitted curve at half-maximal effect; the source files actives as falling curves though it sought activators and does not explain the sign; nearly all actives have a fitted effect of over 65% in size; many hits overshoot -100%
Target sequence (P80244 whole entry, looked up): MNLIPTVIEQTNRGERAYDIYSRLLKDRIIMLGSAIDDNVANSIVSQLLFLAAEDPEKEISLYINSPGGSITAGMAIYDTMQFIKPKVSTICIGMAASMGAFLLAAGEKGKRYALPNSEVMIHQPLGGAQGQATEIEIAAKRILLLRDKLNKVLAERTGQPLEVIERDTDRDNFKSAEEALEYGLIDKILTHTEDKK
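FRET quenching reversal measured ClpP activation: 10 microg/mL B. subtilis ClpP at pH 8 with the FRET-FV decapeptide, read at 430 nm after 320 nm excitation. The 20-min minus 0-min signal was scaled between DMSO/no-enzyme wells and ADEP (5.8 microM final).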
Menin-MLL FL inh: displaces fluorescein MLL peptide from human menin. Fluorescence polarization, fluorescein-MLL peptide displacement from menin. FP activity change, % at 61.4 µM. 290,000 tested, under 10 active. AID 1766; inconclusive = falling polarisation curve, or a change in total fluorescence; inactive = total fluorescence flat and polarisation flat or rising; no compound was filed as active; the % refers to the polarisation; negative = inhibition;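 also: % of control where 0% means no effect; inhibitors lower the polarisation; unlabelled MLL peptide was the positive control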
Active calls of the source: *; ? = inconclusive; nt = not tested or not shown; & = joins results of further samples; [ ] = dose if it differs, or a comment.

The line under a structure holds: PINK1 modulator, TRPV1 PAM, TRPML1 inh, Sfp PPTase inh, TRPML1 agonist, ClpP mod, Menin-MLL FL inh
> Cc1ccc(C)c(C(=O)Nc2cc(C)nn2-c2nc(C)cc(C)n2)c1
  3.2%, 1.6, 8.6, 4.5%, 0.4, ?, 4.1
> CC(=O)c1ccc(N2C(=O)C3C4C=CC(CC4)C3C2=O)cc1 (stereo not drawn)
  1.8%, 2.4, -13.0, 2.4%, -0.3, 0.0%, -0.9
> CC1CN(S(=O)(=O)c2cccc(C(=O)N(CCc3ccccc3)Cc3ccccc3)c2)CC(C)O1 (stereo not drawn)
  1.0%, 7.0, -7.2, nt, 1.2, 1.7%, nt
> CCCN(C(=O)c1cccs1)c1nnc(-c2ccncc2)s1
  -0.9%, -30.6, -1.3, -19.6%, 1.5, 98.1%, -2.7
> CC1CCCN(CC(O)COc2ccc3c(c2)OCO3)C1 (stereo not drawn)
  ?, -36.8, 13.6, -3.2%, -0.7, nt, 0.6
> CCc1cc(C(=O)N=Nc2c(O)[nH]c3c(Br)cc(Br)cc23)c2ccccc2n1
  1.9%, 4.8, 38.4, -15.3%, 3.0, nt, 3.7
> CCC1CCCCN1CCCNC(=O)c1ccc(CS(=O)(=O)c2ccc(Br)cc2)o1 (stereo not drawn)
  10.9%, 2.7, 1.9, 14.0%, 4.1, 1.2%, nt
> CC(C)C(=O)N1c2ccccc2NC2=C(C(=O)CCC2)C1c1ccc(N(C)C)cc1 (stereo not drawn)
  -1.1%, -3.2, 7.1, -7.1%, 0.0, -2.0%, -2.6
> Cc1c(NC(=S)Nc2ccccc2)c(=O)n(-c2ccccc2)n1C
  3.3%, 22.7, -24.2, 21.2%, 0.3, ?, 3.2
> CC(Oc1ccccc1Cl)C(=O)N1CCOCC1 (stereo not drawn)
  1.7%, 6.9, 6.4, 15.3%, -0.4, 0.1%, 6.7
> O=[N+]([O-])c1ccc2ncnc(Nc3ccc4c(c3)OCCO4)c2c1
  -0.6%, -17.9, 43.6, -16.5%, 0.4, -2.0%, -3.2
> CCN1CCN(C(c2ccc(F)cc2)c2nnnn2Cc2ccc3c(c2)OCO3)CC1 (stereo not drawn)
  -1.8%, 9.2, 14.9, 9.6%, 0.3, -2.2%, 0.2
> Cc1ccc(C(NC(=O)N2CCN(C)CC2)C(Cl)Cl)cc1F (stereo not drawn)
  2.2%, -7.0, 10.1, 15.4%, -0.3, nt, -1.9
> COc1ccc(NC(=O)CN(C)C(=O)Cc2ccc(-c3ccccc3)cc2)cc1
  16.6%, -11.1, 9.6, nt, 2.2, -4.2%, nt
> O=C(N/N=C/c1ccc(Br)s1)c1cccc([N+](=O)[O-])c1
  4.3%, -22.9, -6.8, 11.2%, -0.2, 1.3%, -1.5
> CC(C)Oc1ccc(CNS(=O)(=O)c2ccc3c(c2)C(C)(C)C(=O)N3C)cc1
  3.9%, nt, 11.8, nt, -0.3, 1.4%, nt
> Cc1nn(C)c(C)c1CNC(=O)Nc1cccc(Cl)c1
  2.0%, -24.6, 22.9, 8.7%, -0.4, -0.1%, 2.6
> Fc1ccc(NC(=S)Nc2cccc3cnccc23)cc1
  1.0%, 4.5, 10.9, 2.82µM*, 0.4, nt, 2.9
> CC(=O)NCCCc1nc2ccccc2n1Cc1cc(C)ccc1C
  0.2%, 2.3, -24.4, 12.7%, 1.3, nt, -6.8
> COc1ccccc1CNC(=O)CN1CCC(n2cnc3cc(F)ccc32)CC1
  -1.7%, -3.6, -8.2, 17.1%, 0.3, 2.1%, 7.2
> Cc1ccsc1CN(C)CC(=O)Nc1ccccc1C(=O)NC1CC1
  0.7%, nt, -3.0, nt, -0.2, ?, nt
> O=C(CN1CCSC1=NCc1ccccc1)c1ccc(Cl)cc1
  12.7%, -6.5, 28.8, ?, 1.3, -2.6%, -3.3
> COc1cccc(-c2nnc(-c3ccccc3[N+](=O)[O-])o2)c1
  7.6%, 7.4, 13.5, 12.3%, 0.2, nt, -1.1
> O=C(Nc1ccccc1C(=O)OCC(=O)N1CCc2ccccc2C1)c1ccco1
  -2.3%, 7.0, -2.0, -0.8%, -0.1, -2.6%, 28.3
> CC1CCN(C(=O)CSc2nnc(N)s2)CC1
  2.5%, 0.6, -6.9, 13.2%, 0.0, 1.9%, nt
> O=C(Cn1cnc([N+](=O)[O-])n1)N/N=C/c1cccc(Cl)c1
  2.5%, -3.8, 0.6, 6.8%, 0.4, -2.2%, 0.1
> COc1ccc(OCCC(=O)Nc2ccccc2)cc1
  2.0%, -14.4, -4.2, -3.0%, -0.3, 1.7%, -2.5
> C=CCc1cccc(/C=N/NC(=O)CCC(=O)Nc2ccc(C)cc2)c1O
  -0.6%, 0.4, -22.6, 32.5%[activator], -0.5, -21.1%, 5.8
> O=C(Cc1ccccc1)c1ccc(O)cc1
  -1.6%, nt, 1.3, nt, 0.5, nt, nt
> CC(=O)N1CCN(c2nc3ccc(Br)cc3s2)CC1
  0.9%, -12.8, -15.5, 6.0%, -0.5, -0.7%, -1.4
> CCOC(=O)C1CCN(c2cc3c(cc2NC(=O)c2cc(OC)ccc2Br)n(C)c(=O)n3C)CC1
  2.9%, -3.4, -15.2, -0.9%, 0.8, -28.1%, -8.8
> CCC(=O)N1CCc2cc(Br)cc(S(=O)(=O)CCC(=O)NCCc3ccccc3)c21
  0.4%&-1.1%, 7.7, -18.6&-1.7, -0.6%, -1.5&-1.0, 1.0%&0.6%, -3.6
> Cc1nc2c(-c3ccccc3)c(C)nn2c(C)c1CCC(=O)NC(C)CCc1ccco1 (stereo not drawn)
  1.9%, -14.0, -2.8, -1.9%, -0.1, -0.4%, 0.1
> NC(=O)c1cc(-c2csc(NCCc3ccccc3)n2)ccc1O
  0.3%, 2.6, -27.4, ?, -0.3, nt, -5.6
> O=S(=O)(Nc1cccc(-c2ccc3nncn3n2)c1)c1cc(F)ccc1F
  3.2%, 10.7, -11.5, nt, 0.8, 1.2%, nt
> O=C(Nc1ccc(N2CCCC2)cc1)c1ccc(Br)cc1
  12.1%, -10.4, nt, -15.0%, nt, -2.2%, 8.3
> CN(C)c1ccc(C(=S)NC2CCCCC2)cc1
  3.4%, -9.0, 7.0, 20µM*, 2.7, 0.3%, 5.9
> COc1ccccc1NC(=O)Cn1nc(C)n2cccc2c1=O
  3.3%&1.6%, 4.4, -3.3&-9.2, 11.3%, -0.2&0.2, -0.5%&0.8%, 0.3
> COc1cccc(-n2c(-c3ccc(Cl)cc3)cc3c2CC(C)(C)CC3=O)c1
  1.4%, nt, -0.6, nt, 0.9, -28.9%, nt
> O=c1nc(SCc2cccc(C(F)(F)F)c2)nc2ccccn12
  4.6%, ?, -5.5, -4.9%, -0.2, nt, -5.0
> N#C/C(=C\c1cc([N+](=O)[O-])c(N2CCCCC2)cc1N1CCCCC1)c1nn(-c2ccccc2)c(N)c1C#N
  0.3%, -3.1, 10.7, 14.2%, -0.8, -4.0%, 8.6
> CCC(C)(C)NC(=S)Nc1ccccc1C
  5.7%, 23.2, 6.1, 13.2%, -0.2, -0.4%, -1.4
> COc1ccccc1C1CC(c2ccco2)=NN1c1ccccc1 (stereo not drawn)
  2.7%, -11.1, 29.0, -22.2%, 2.7, 3.55µM*, 8.5
> O=S(=O)(c1ccc(Oc2ncnc3scc(-c4ccccc4)c23)cc1)N1CCOCC1
  4.4%, 28.8, 23.1, 0.9%, 0.3, 3.4%, -0.1
> CC(C)=CCn1c2ccc(NC(=O)Nc3cccnc3)cc2c(=O)n1C
  3.2%, nt, nt, nt, -0.1, 5.3%, nt
> CCOC(=O)CCCNC(=O)COC(=O)[C@@H]1CCCN1S(=O)(=O)c1ccc(Cl)cc1
  4.1%, 1.9, 7.9, -1.1%, 0.8, 0.3%, 3.1
> COc1ccc2nc(N/C(N)=N/C(=S)Nc3c(C)cccc3C)nc(C)c2c1
  12.4%, 12.1, 0.1, -2.7%, 1.1, 3.5%, 5.4
> CC(NC(=O)C1CCN(S(=O)(=O)c2cccc3cccnc23)CC1)c1ccccc1 (stereo not drawn)
  0.5%, 4.2, -8.5, 5.8%, -0.4, -0.5%, nt
> O=[N+]([O-])c1ccc2nc(SCc3ccccc3Cl)sc2c1
  -8.6%[38.3 µM], 6.2, 34.0, 7.3%, 1.9, 1.1%, 5.0
> COc1ccc2nc(Nc3ccc4c(c3)OCO4)sc2c1
  4.9%, -27.6, 23.3, -3.1%, 1.1, 0.2%, 1.6
> N#Cc1ccc(OCC(=O)Nc2cc(S(=O)(=O)N3CCCCC3)ccc2N2CCCCC2)cc1
  6.3%, -1.8, 6.7, 3.4%, -0.4, 0.2%, 7.8
> COc1ccc(NC(=O)/C=C/c2ccc3c(c2)OCO3)cc1
  0.2%, -21.5, -12.1, 9.4%, 0.1, 1.1%, 0.2
> CCCCCCCCNS(=O)(=O)CCNC1CCCCC1
  -1.0%, nt, 32.3, nt, 0.0, 0.5%, nt
> COc1ccc(OC)c(NC(=O)CSC2=Nc3ccccc3C3=NC(CCC(=O)NCc4ccco4)C(=O)N23)c1 (stereo not drawn)
  0.9%, nt, 18.1, nt, 0.4, -0.1%, nt
> CC1(C(=O)NS(=O)(=O)c2ccc(C#N)cc2)CCN1C(=O)CCc1ccc(Cl)cc1Cl (stereo not drawn)
  1.2%, nt, nt, nt, -0.7, -1.2%, nt
> CSc1cccc(NC(=O)C2CC(=O)N(Cc3ccccc3)C2)c1 (stereo not drawn)
  -0.3%, -4.6, 18.6, 9.2%, 0.3, 0.7%, -1.0
> O=C(COC(=O)CC1CCCC1)Nc1ccccc1[N+](=O)[O-]
  -0.6%, -1.0, -3.0, nt, 4.0, -0.9%, nt

Assay outcomes as filed in PubChem.
